Screening results as filed in PubChem BioAssay.
WNV NS2B-NS3 inh: blocks West Nile virus NS2B-NS3 protease activity | P06935 | WNV NS2B-NS3 protease, fluorogenic substrate Ex360/Em465; active compounds read low | z-score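 (tested at a level between 10 and 100 µM)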 | actives 0.18% (n = 65,000) | AID 577;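 active = z-score at -3 or under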;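 note: score is relative to mean and spread of the compound wells of a plate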
Target sequence (P06935 1371-1501 limits assumed): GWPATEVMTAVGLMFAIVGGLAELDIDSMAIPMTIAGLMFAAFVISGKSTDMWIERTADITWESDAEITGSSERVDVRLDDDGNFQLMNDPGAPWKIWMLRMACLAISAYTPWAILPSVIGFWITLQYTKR
Target sequence (P06935 1502-1679 limits assumed): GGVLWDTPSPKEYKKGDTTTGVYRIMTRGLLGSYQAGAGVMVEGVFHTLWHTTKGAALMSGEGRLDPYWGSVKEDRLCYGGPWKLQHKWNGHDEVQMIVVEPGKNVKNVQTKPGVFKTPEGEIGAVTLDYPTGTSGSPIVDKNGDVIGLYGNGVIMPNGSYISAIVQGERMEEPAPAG
MT1-MMP reporter: MT1-MMP gene expression reporter suppression – cell-based, luciferase reporter, luminescence (AID 618); MT1-MMP promoter luciferase reporter cells, luminescence; calls from a first round at 10 µM; hits with a dose series show EC50 in µM; actives 0.62% (n = 87,000);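 active = over half of the reporter light lost at 10 µM or EC50 under 50 µM; inactive = the rest and hits that failed the dose series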;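 note: actives suppress MT1-MMP promoter-driven transcription so potencies describe inhibitors; HT1080 fibrosarcoma cells; overnight exposure; toxic or luciferase-blocking compounds were not removed from the actives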
Hsc70 ATP site: small molecules displacing fluorescent ligand from Hsc70 – biochemical, fluorescence polarization, primary screen (AID 568). displacement, % at 20 µM, or IC50 in µM where a hit was titrated. 83,000 tested, under 10 active. Hsc70 fluorescence polarization, probe displacement; higher % means a stronger effect; strong numbers were not always called active;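 active = displacement above 50% without optical interference and an IC50 on retest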;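 note: ATPase domain with a fluorescein-tagged ATP probe; 0% = vehicle and 100% = excess ADP; read after one hour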
Active calls of the source: *; i = inactive; . = not tested or not shown; + = active, no number. A portion of the library; rates above refer to the full screens.

SMILES	WNV NS2B-NS3 inh	MT1-MMP reporter	Hsc70 ATP site
COc1ccc(-c2nnc(SCC(=O)N(Cc3ccccc3)C(C)(C)C)o2)cc1OC	-0.58	i	-1.6%
CN(C)C(=O)CSc1nnc(CCN)o1	-1.55	i	-1.2%
COc1cc(CN2CCC(C(=O)N3CCCC(C)C3)CC2)cc(OC)c1O (stereo not given)	.	i	4.6%
COc1cc(CNc2ccc(C)c(C)c2)cc(OC)c1OC	-0.41	i	2.3%
O=c1c2ccccc2nnn1CSc1nc2cc(Cl)ccc2c(=O)n1Cc1ccco1	0.76	i	0.2%
CCCCCCNC(=O)Nc1ccccc1	-0.14	i	6.8%
O=C(CSc1nnc(-c2ccco2)n1Cc1ccccc1)NCc1ccccc1	.	i	2.0%
NC(=O)c1cc2ccc(O)cc2oc1=Nc1ccccc1	-0.00198	i	0.8%
O=C(Nc1ccccc1F)c1ccc(S(=O)(=O)NCC2CCCO2)cc1 (stereo not given)	-0.49	i	3.3%
CCn1cc(Br)c(C(=O)N2CCN(c3ccccc3)CC2)n1	1.58	i	1.4%
Cc1ccnc(NS(=O)(=O)c2ccccc2)n1	-0.82	i	5.6%
Cc1ccc2nsnc2c1S(=O)(=O)Nc1cccc2nsnc12	1.68	i	-4.4%

Two records drawn at random from the list so far:
SMILES	WNV NS2B-NS3 inh	MT1-MMP reporter	Hsc70 ATP site
CN(C)C(=O)CSc1nnc(CCN)o1	-1.55	i	-1.2%
CCn1cc(Br)c(C(=O)N2CCN(c3ccccc3)CC2)n1	1.58	i	1.4%

The results go on.
SMILES	WNV NS2B-NS3 inh	MT1-MMP reporter	Hsc70 ATP site
O=C(COc1ncnc2scc(-c3ccc(Cl)cc3)c12)NCc1ccco1	.	i	2.4%
O=c1nccc(NCc2ccco2)[nH]1	-0.92	i	-1.2%
O=C(c1cc(Cl)ccc1Cl)N1CCOCC1	1.31	i	2.2%
CCCCCCCCOC(=O)C(NC(=O)CCC(=O)Nc1ccc(S(N)(=O)=O)cc1)C(O)c1ccccc1 (stereo not given)	.	i	3.4%
CCOC(=O)Cn1c(CN(Cc2ccccc2)Cc2ccccc2)nc2c1c(=O)n(C)c(=O)n2C	-0.06	i	5.1%
O=C(c1cccc(S(=O)(=O)N2CCCC2)c1)c1nnc(-c2ccncc2)o1	0.36	i	-0.3%
O=C(NCCCn1ccnc1)c1sc2cccc(F)c2c1Cl	.	i	2.5%
O=C1CCCN1Cc1ncnn1-c1ccccc1	0.35	i	-3.1%
CCC(=O)N1CCN(c2cc(C)ccc2C)CC1	-0.89	i	3.1%
COc1cccc(N(C(=O)Cn2nnc(-c3ccc(C)o3)n2)C(C(=O)NC(C)(C)C)c2cccs2)c1 (stereo not given)	.	i	0.1%
COc1ccc(NC(=O)C2CC(=O)N(c3cc(C)ccc3C)C2)cc1 (stereo not given)	1.06	i	2.4%
Cn1c(-c2ccccc2)cnc1SCc1nc2ccccc2c(=O)[nH]1	0.23	i	1.9%
Cc1ccc(S(=O)(=O)/C(C#N)=C/c2c(N3CCN(C)CC3)nc3ccccn3c2=O)cc1	-0.57	i	5.3%
O/N=C1/CCCCc2sccc21	0.51	i	6.4%
Cc1cccn2c(=O)c3cc(C#N)c(=N)n(CCN4CCOCC4)c3nc12	0.31	i	6.9%
O=C(CCl)N(c1ccc(Cl)cc1)c1c[nH]c2ccccc12	.	+	-0.4%
CCOc1ccc(N(CC(=O)NCC2CCCO2)S(=O)(=O)c2ccc(OC)c(OC)c2)cc1 (stereo not given)	-0.68	i	-1.2%
O=C(NCCN1CCN(Cc2ccccc2Cl)CC1)Nc1ccccc1	.	i	7.3%
Cc1nc2ccccc2c(=O)n1CC(=O)N1CCOCC1	-0.16	i	-3.8%
COc1ccc(-n2nnc3c(SCC(=O)NCc4ccco4)ncnc32)cc1	-0.69	i	-0.1%
CCOc1ccc(Nc2nc(Cc3nnc(SCC(=O)N(CC)CC)n3C)cs2)cc1	.	i	-4.4%
COc1ccc(N2CCN(c3nc(NCCO)nc(N4CCOCC4)n3)CC2)cc1	-0.4	i	3.3%
CCOC(=O)CCCc1sc(N)nc1-c1[nH]c(=O)[nH]c1C	-0.35	i	-1.6%
C=CCN1C(=O)/C(=C/c2ccc(N(C)C)cc2)S/C1=N\c1nnc(CC)s1	.	i	-56.6%

Full records, looked up by structure.
Entry for `CCOc1ccc(N(CC(=O)NCC2CCCO2)S(=O)(=O)c2ccc(OC)c(OC)c2)cc1` (stereo not given) : WNV NS2B-NS3 inh: -0.68; MT1-MMP reporter: i; Hsc70 ATP site: -1.2%
Entry for `Cc1nc2ccccc2c(=O)n1CC(=O)N1CCOCC1` : WNV NS2B-NS3 inh: -0.16; MT1-MMP reporter: i; Hsc70 ATP site: -3.8%

Additional entries.
SMILES	WNV NS2B-NS3 inh	MT1-MMP reporter	Hsc70 ATP site
Oc1ccccc1/C=N/n1cnnc1	.	i	0.7%
COc1cccc(/C=N/Nc2nn3cnnc3c3ccccc23)c1	.	i	0.7%
Cc1cc(Nc2ccccc2)n(-c2ccc(Br)cc2)n1	.	i	6.4%
Cc1ccc(C(C(=O)NCCc2ccccc2)N(C(=O)c2csnn2)C2CC2)o1 (stereo not given)	-0.34	i	-2.6%
O=[N+]([O-])CC(=Nc1ccc(Cl)cc1)N/N=C\c1oc(O)c2ccccc12	.	i	1.2%
O=C(COc1ccccc1F)Nc1ccc(S(=O)(=O)NCc2ccco2)cc1	0.63	i	8.2%
CCC1Oc2ccc(C)cc2N(CC(=O)N(Cc2ccc(C)o2)C2CC(C)(C)NC(C)(C)C2)C1=O (stereo not given)	.	i	4.4%
COc1ccc(-n2c(SCC#N)nc3ccccc3c2=O)cc1	1.05	i	-4.1%
Cc1csc2nc(CNS(=O)(=O)c3cccnc3)cn12	0.41	i	-0.7%
CC1(C)CC(=O)C(C=NCC2CCNCC2)=C(O)C1	0.4	i	-1.9%
CCOC(=O)c1sc(NC(=O)c2cc(S(=O)(=O)N3CCOCC3)ccc2C)nc1C	2.27	i	5.3%
CCOc1ccc(C(CC(=O)O)NS(=O)(=O)c2ccc(C)cc2)cc1OC (stereo not given)	-0.56	i	4.5%
Cc1ccc(NC(=O)CSCC(=O)N2CCOCC2)cc1	.	i	-0.8%
CCC(C)Nc1c2c(nc3c(-c4ccccc4)c(C)nn13)CCC2 (stereo not given)	.	i	3.5%
COCCCn1c(SCC(=O)N2CCc3ccccc32)nnc1-c1ccoc1C	-0.18	i	-4.9%
O=C(NCCN1CCN(c2ccccc2)CC1)c1cccn2c(=O)c3ccccc3nc12	-0.73	i	-6.4%
Nc1nc(CSCc2ccccc2)nc(N2CCOCC2)n1	0.03	i	2.2%
CCOc1ccc(N(CC(=O)NCc2cccc(OC)c2)S(=O)(=O)c2c(C)noc2C)cc1	0.3	i	3.7%
CCCN(CCC)CCNC(=O)C1c2ccccc2C(=O)N(CCOC)C1c1ccc(F)cc1 (stereo not given)	.	i	-6.9%
COc1ccc(OCC(O)Cn2c(=N)n(CCN3CCOCC3)c3ccccc32)cc1 (stereo not given)	-0.88	i	7.9%
COc1ccc(CN2C(=O)c3cccnc3C2O)cc1 (stereo not given)	.	i	0.7%
CC(C)NC(=O)C1CCN(C(=O)C(C(=O)c2ccccc2)n2cc(Cl)ccc2=O)CC1 (stereo not given)	-0.44	i	-2.6%
CN1CCN(C(=O)C2CCC(CNS(=O)(=O)c3cccc4cccnc34)CC2)CC1 (stereo not given)	-0.63	i	-1.3%
COC(=O)c1sccc1NC(=O)C1C2C=CC(O2)C1C(=O)O (stereo not given)	-0.98	i	-1.5%
C#CCNc1nc(C)nc2c1nnn2Cc1ccccc1F	-0.02	i	1.2%
CC(C)c1ccc(S(=O)(=O)N2CCN(CCC(=O)Nc3ccc(N(C)C)cc3)CC2)cc1	-0.49	i	3.9%
CN(C)CCN1C(=O)C(O)=C(C(=O)c2cc3ccccc3o2)C1c1cccc(Br)c1 (stereo not given)	.	i	4.1%
CC[C@@H](C)[C@H](NC(=O)OC(C)(C)C)c1nnc(S(=O)(=O)Cc2cc(C)ccc2C)o1	0.11	i	2.0%
CCCNC(=O)c1ccc(SC)cc1OC	1.85	i	1.2%
COc1ccc[nH]c1=O	0.61	i	3.1%
Cc1ccc(NCc2nnc(SCC(=O)c3ccc4c(c3)OCCO4)o2)c(C)c1	0.33	i	4.1%
CCOC(=O)c1[nH]nc(-c2cc(CC)c(O)cc2O)c1-c1cscn1	.	i	1.8%
CCOC(=O)CC1C(C(=O)OCC)ON2OC(C(=O)OC)C(C(=O)OCC)C12 (stereo not given)	.	i	0.5%
O=C(c1ccc(Br)cc1)N1CCCC1	.	i	5.3%
CCOC(=O)C(Cc1c[nH]c2ccccc12)NC(=O)CNC(C)=O (stereo not given)	-0.35	i	1.2%
COC(=O)CC(NC(=O)c1ccc(C)cc1)c1ccc2c(c1)OCO2 (stereo not given)	.	i	5.1%
O=c1[nH]c2ccccc2n1CCCSCCCn1c(=O)[nH]c2ccccc21	0.28	i	-7.1%
CCc1ccc(C2CC(c3ccccc3)Nc3nc(N)nn32)cc1 (stereo not given)	0.09	i	7.3%
Nc1ncnc2nc(N3CCN(C(=O)c4ccccc4)CC3)[nH]c12	-1.02	i	2.8%
COCc1cc(C)nc2sc(C(=O)OC)c(N)c12	0.58	i	4.0%
O=C(C1CCCN(S(=O)(=O)c2cccc3nsnc23)C1)N1CCN(c2ccccn2)CC1 (stereo not given)	0.39	i	8.4%
COCCn1nnnc1C1(N(Cc2cc3cc(C)ccc3[nH]c2=O)CC2CCCO2)CCN(C)CC1 (stereo not given)	0.83	i	3.8%
Cc1cc(C)n(CCO)c(=O)n1	1.84	i	10.0%
CCc1nc(N)nc(N)c1-c1ccc(Cl)cc1	0.22	i	-0.9%
Cc1cc(F)ccc1S(=O)(=O)Nc1ccccc1C(=O)Nc1ccccc1N1CCOCC1	.	i	0.8%
COc1ccc(-c2nnc(SC(C)C(=O)Nc3nccs3)n2-c2ccccc2)cc1OC (stereo not given)	1.09	i	7.0%
CSc1ccccc1NC(=O)Nc1ccccc1	-0.93	i	-1.2%
COc1cccc(NC(=O)C(C)Oc2ccccc2)c1 (stereo not given)	-0.28	i	1.2%

Some values from above.
Under Hsc70 ATP site, `COc1cccc(NC(=O)C(C)Oc2ccccc2)c1` (stereo not given) has the entry 1.2%
Under Hsc70 ATP site, `Nc1ncnc2nc(N3CCN(C(=O)c4ccccc4)CC3)[nH]c12` has the entry 2.8%
Under Hsc70 ATP site, `COCCn1nnnc1C1(N(Cc2cc3cc(C)ccc3[nH]c2=O)CC2CCCO2)CCN(C)CC1` (stereo not given) has the entry 3.8%

(cont.)
SMILES	WNV NS2B-NS3 inh	MT1-MMP reporter	Hsc70 ATP site
Cc1c(C(=O)N(C)Cc2ccccc2)oc2ccc(S(=O)(=O)N3CCCC3)cc12	-0.1	i	6.5%
Cc1ccc(CN2C3=NCCCN3c3ccccc32)cc1	1.29	i	-5.8%
O=C(O)c1ccc(COc2c(F)c(F)c(F)c(F)c2F)o1	1.08	i	11.8%
Cc1ccc(-c2nnc3c4ccccc4c(C)nn23)cc1S(=O)(=O)N1CCN(C)CC1	0.13	i	5.2%
CC(C)c1nc(N2CCOCC2)c(C#N)c2c1COC(C)(C)C2	2.16	i	3.1%
O=C(O)[C@@H]1CSC2(CCSC2)N1 (stereo not given in full)	0.55	i	6.1%
CC(=O)Nc1ccc(Cl)cc1C(=O)O	0.29	i	2.1%
CCC(=O)Nc1ccccc1C(=O)N1CCCC1	.	i	2.2%
COc1ccccc1NC(=O)c1c(NC(=O)c2ccco2)sc2c1CCC2	-0.6	i	-3.7%
NNC(=O)C1CCCn2c1nc1sc3c(c1c2=O)CCCC3 (stereo not given)	.	i	-10.1%
Cc1nn(-c2ccc(F)cc2)c2sc(C(=O)OCC(=O)N3CCC(C)CC3)cc12	0.37	i	3.2%
CCN(CCCNC(=O)CCNC(=O)Cn1cnc2ccccc2c1=O)c1cccc(C)c1	-0.94	i	-0.3%
C/C=C/c1ccc(OC)c(OC(C)=O)c1	0.23	i	-0.9%
CC(=O)N1c2ccccc2NC2=C(C(=O)CCC2)C1c1cccnc1 (stereo not given)	0.24	i	-1.6%
Cc1ccc(NC(=O)N2CCC(c3nc4c(nnn4Cc4c(F)cccc4Cl)c(=O)[nH]3)CC2)cc1	.	i	-1.1%
CC(OC(=O)CNC(=O)C12CC3CC(CC(C3)C1)C2)C(=O)Nc1ccc(N2CCOCC2)cc1 (stereo not given)	-0.56	i	1.5%
CC(C)CC(NC(=O)C(NC(=O)OC(C)(C)C)C(C)C)C(=O)NC(CCC(=O)OCc1ccccc1)C(N)=O (stereo not given)	.	i	3.9%
CC(C)c1ccc(NC(=O)c2ccc(Br)o2)cc1	.	i	-2.4%
C=CCNC(=S)N1CCN(CCN=CC2=C(O)CC(c3cccs3)CC2=O)CC1 (stereo not given)	.	i	2.5%
CC(C)CC(=O)Nc1ccc(OCC(=O)O)cc1	-0.54	i	1.7%
CCOC(=O)c1ccccc1NC1OC(=O)c2ccccc21 (stereo not given)	0.42	i	4.7%

As a working copy, some entries already given:
SMILES	WNV NS2B-NS3 inh	MT1-MMP reporter	Hsc70 ATP site
Cc1ccc(NC(=O)N2CCC(c3nc4c(nnn4Cc4c(F)cccc4Cl)c(=O)[nH]3)CC2)cc1	.	i	-1.1%
CC(OC(=O)CNC(=O)C12CC3CC(CC(C3)C1)C2)C(=O)Nc1ccc(N2CCOCC2)cc1 (stereo not given)	-0.56	i	1.5%
CC(C)CC(NC(=O)C(NC(=O)OC(C)(C)C)C(C)C)C(=O)NC(CCC(=O)OCc1ccccc1)C(N)=O (stereo not given)	.	i	3.9%
CC(C)c1ccc(NC(=O)c2ccc(Br)o2)cc1	.	i	-2.4%
